Mtb betalactam: beta-lactam sensitization of Mtb H37Rv; M. tuberculosis H37Rv growth with meropenem, percent inhibition; hits of this screen are not shown here; inhibition, % at 25 µM; hit rate 0.27% among 330,000; AID 434955;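 active = about 74% or more and at least 40 points above the plate without the antibiotic, then above 30% in a dose series; inconclusive = first-round hits that could not be retested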;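 note: growth measured after seven days incubation then overnight dye step; 0% = bacteria only wells and 100% = bacteria with antibiotic; twin plates without the antibiotic show which effects depend on it; some results filed as inactive read as strong as hits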
RecA splice inh: blocks M. tuberculosis RecA intein splicing; P9WHJ3; hit rate 0.75% among 290,000; inhibition, %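 (about 9 µM by stock and volumes)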; AID 2221; cell-free RecA intein splicing, fluorescence; in the data active = inhibition above about 30%; inconclusive = no clear call, values can overlap the other calls;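 note: 0% = vehicle wells and 100% = reference inhibitor control wells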
Target sequence (P9WHJ3 whole entry, looked up, canonical isoform): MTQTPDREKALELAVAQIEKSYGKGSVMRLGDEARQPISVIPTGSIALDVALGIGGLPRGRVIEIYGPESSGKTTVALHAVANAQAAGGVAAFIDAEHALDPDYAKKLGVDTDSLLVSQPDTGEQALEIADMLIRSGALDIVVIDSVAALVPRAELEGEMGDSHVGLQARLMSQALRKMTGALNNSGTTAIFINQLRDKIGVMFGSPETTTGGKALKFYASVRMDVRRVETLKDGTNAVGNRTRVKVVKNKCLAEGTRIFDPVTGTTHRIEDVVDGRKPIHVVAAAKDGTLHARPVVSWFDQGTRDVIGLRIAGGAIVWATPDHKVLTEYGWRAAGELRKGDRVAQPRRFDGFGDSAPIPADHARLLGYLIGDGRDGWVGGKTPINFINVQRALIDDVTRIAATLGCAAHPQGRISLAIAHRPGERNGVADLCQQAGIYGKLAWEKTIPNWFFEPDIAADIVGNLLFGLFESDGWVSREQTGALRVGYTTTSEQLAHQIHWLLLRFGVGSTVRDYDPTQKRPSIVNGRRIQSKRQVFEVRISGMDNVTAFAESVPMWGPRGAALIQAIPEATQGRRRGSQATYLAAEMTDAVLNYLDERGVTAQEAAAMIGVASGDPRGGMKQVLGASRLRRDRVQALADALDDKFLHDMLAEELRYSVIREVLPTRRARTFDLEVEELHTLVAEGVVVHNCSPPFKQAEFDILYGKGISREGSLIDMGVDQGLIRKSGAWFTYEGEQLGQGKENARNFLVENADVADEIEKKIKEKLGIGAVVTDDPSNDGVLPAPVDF
YopH PTP inh: inhibitors of Yersinia enterocolitica YopH tyrosine phosphatase; fluorescence Ex485/Em525; inhibition, %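 (about 10 µM by stock and volumes)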; hit rate 0.16% among 140,000; AID 898;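 active = inhibition of 50% or more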;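 note: controls were vehicle for no effect and minimum signal wells for full effect; inactives centre near -20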
Mtb growth: M. tuberculosis H37Rv growth inhibitors, H37Rv strain (AID 1626). inhibition, % at 10 µM; hits with a dose series show IC50 in µM. M. tuberculosis H37Rv growth inhibition; higher % means a stronger effect. hit rate 0.95% among 220,000;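 active = confirmed in a dose series; inconclusive = inhibition above 80% but not taken into the dose series; inactive = below 80% or under 30% at every dose of the series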;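 note: bacteria incubated seven days before Alamar blue readout; 0% = bacteria only wells and 100% = bacteria with antibiotic wells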
Arbovirus inh: antivirals against arbovirus infection; arbovirus infection cell-based antiviral screen; hit rate 0.37% among 200,000; inhibition, % at 10 µM; AID 1251;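 active = inhibition from about 30%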;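 note: bluetongue infection of BSR cells; cell survival read as ATP light after 72 h; 0% = infected wells without compound and 100% = uninfected wells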
Arbovirus inh repeat: further read-out of Arbovirus inh, marked with its call; inhibition, %; measured here: 10K subset replicate screen; many hits read low in the repeat;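 first of two repeat runs on a subset; 0% = infected and 100% = uninfected wells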
* marks the source's active call; other numbers are inactive results; ? = inconclusive; . = not tested or not shown. This is a subset; count on the stated rates, not on these rows.

SMILES	Mtb betalactam	RecA splice inh	YopH PTP inh	Mtb growth	Arbovirus inh	others
Cc1cc(C)n2nc(C(=O)OCCOc3ccc(F)cc3)nc2n1	-1	2.5	-53	7%	3
COc1ccc(CC(=O)OCC(=O)N2CCCc3ccccc32)cc1OC	-6	0.6	.	.	.
COc1ccc(C2=CSC3=NCCN23)cc1Br	-7	-1.4	.	.	.
C=CCn1c(O)c(C(C)=Nc2cc(OC)ccc2OC)c(=O)[nH]c1=O	-2	-2.6	-52	-10%	-12
NC(=O)c1ccc(OCC2CCCO2)cc1 (centres undefined)	-4	1.4	.	.	.
COc1ccc(Nc2nc(N)c([N+](=O)[O-])c(NC3CCCCC3)n2)cc1	94	9.6	.	.	.
COc1ccc(S(=O)(=O)N2CCOC23CCN(S(=O)(=O)c2ccc(Cl)cc2)CC3)cc1	-6	-2.0	.	.	.
COC(=O)c1ccc(NC(=O)CSc2nnc(COc3ccc4c(c3)CCCC4)o2)cc1	9	0.8	-5	0%	-2	Arbovirus inh repeat=-6
CCCC1C2C(=O)N(c3ccccc3)C(=O)C2ON1c1ccccc1 (centres undefined)	-6	1.2	-30	-1%	-2
COc1ccc(-n2nc(C(=O)NCC(=O)NCc3ccco3)c3ccccc3c2=O)cc1Cl	-2	-0.9	-30	-3%	2
O=C(CSc1nnc(-c2ccc(OC(F)F)cc2)o1)NCc1cccs1	25	-1.2	12	42%	-2
CCOc1cc(C(=O)Nc2ncccn2)cc(OCC)c1OCC	0	1.1	-10	-13%	1
CCOc1cc(OCC)nc(S(C)(=O)=O)n1	-1	0.4	-35	-10%	-6
CC1CN(Cc2nc3c(c(=O)n(C)c(=O)n3C)n2Cc2cccc(Cl)c2)CC(C)O1 (centres undefined)	2	-0.7	-18	3%	6	Arbovirus inh repeat=1
Cc1ccc(-c2nnn3c2nc(Cl)c2ccccc23)cc1	.	-14	.	-3%	-25
Cc1ccc(NC2SC(=O)N(Cc3cccc(C(=O)O)c3)C2=O)cc1 (centres undefined)	-3	-2.8	-41	-2%	1
CCN1CCN(c2c(C=O)c(Cl)nc3ccc(OC)cc23)CC1	1	-2.2	.	.	.
COc1ccc(CNC(=O)COc2cc(=O)n(C)c3ccccc23)cc1	-1	-2.2	.	-12%	-8
CCn1cc(C(=O)NNC(=O)c2ccc(Cl)cc2)c(=O)c2ccc(C)nc21	-1	-1.7	.	2%	-2
O=C(Nc1cccc(NC(=O)c2ccc(Cl)cc2Cl)c1)c1cccnc1	1	3.4	.	.	.
Cc1[nH]oc(=O)c1N=Nc1ccccc1	-7	3.5	-14	-6%	-1
O=C(O)c1ccc(-n2cccc2/C=C2/NC(=O)N(c3cccc(Cl)c3)C2=O)cc1	.	.	.	-4%	10
COc1ccc(OC)c(NC(=O)C2CCCN2C(=O)C2CCC(C)CC2)c1 (centres undefined)	0	4.4	-45	-2%	5	Arbovirus inh repeat=0
Cc1ccc(CSCCNC(=O)/C=C/c2ccc(Cl)cc2)cc1	11	0.3	-3	-9%	5
Cn1c(=O)[nH]c(=O)c2c1nc(N1CCOCC1)n2CCCSc1ncccn1	-14	-1.8	-33	3%	9
COc1ccc(S(=O)(=O)O)cc1P(=O)(c1ccccc1)c1ccccc1	1	-1.7	.	.	.
CCOc1ccc(/C=C2\SC(=O)N(CCNC(=O)C3COc4ccccc4O3)C2=O)cc1OC (centres undefined)	39	1.5	-24	11%	-2
COc1ccc(-c2[nH]nc3c2C(c2ccsc2)C(C#N)=C(N)O3)cc1 (centres undefined)	4	71*	-28	-4%	-2
O=C(COC(=O)Cc1cccc(C(F)(F)F)c1)Nc1ccccc1	3	1.1	-20	-2%	-1
O=C(Cn1cc([N+](=O)[O-])cn1)Nc1ccn(Cc2c(F)c(F)cc(F)c2F)n1	2	1.4	3	3%	-5

Six successive records already listed, quoted:
SMILES	Mtb betalactam	RecA splice inh	YopH PTP inh	Mtb growth	Arbovirus inh	others
Cn1c(=O)[nH]c(=O)c2c1nc(N1CCOCC1)n2CCCSc1ncccn1	-14	-1.8	-33	3%	9
COc1ccc(S(=O)(=O)O)cc1P(=O)(c1ccccc1)c1ccccc1	1	-1.7	.	.	.
CCOc1ccc(/C=C2\SC(=O)N(CCNC(=O)C3COc4ccccc4O3)C2=O)cc1OC (centres undefined)	39	1.5	-24	11%	-2
COc1ccc(-c2[nH]nc3c2C(c2ccsc2)C(C#N)=C(N)O3)cc1 (centres undefined)	4	71*	-28	-4%	-2
O=C(COC(=O)Cc1cccc(C(F)(F)F)c1)Nc1ccccc1	3	1.1	-20	-2%	-1
O=C(Cn1cc([N+](=O)[O-])cn1)Nc1ccn(Cc2c(F)c(F)cc(F)c2F)n1	2	1.4	3	3%	-5

Continued.
SMILES	Mtb betalactam	RecA splice inh	YopH PTP inh	Mtb growth	Arbovirus inh	others
COc1ccc(N2CCN(c3ncccc3C#N)CC2)cc1	2	1.2	5	10%	9
Cc1cc(C)c(NC(=O)C2CCCN2CCOC(=O)c2cccc([N+](=O)[O-])c2)c(C)c1 (centres undefined)	-1	3.1	-28	2%	3
CSc1ccccc1-c1nnc(-c2ccc(Cl)cc2Cl)o1	3	1.5	-14	.	3
Cc1ccc(NC(=O)C(SCC(=O)O)c2ccccc2)cc1C (centres undefined)	-6	-1.0	-45	2%	5
FC(F)(F)c1cccc(NC(=S)NCc2ccccc2)c1	44	5.2	-16	-2%	-38
O=C(c1ccccc1Br)N1N=C(c2ccccc2)CC1c1ccccc1F (centres undefined)	-3	15	.	.	.
COc1cccc(NC(=O)CSc2nnc(CNC(=O)c3ccco3)n2C)c1	-5	-0.7	.	.	.
CC1CCCN(C(=O)CSc2nnc(-c3c[nH]c4ccccc34)o2)C1 (centres undefined)	12	2.3	-49	14%	-5
Cc1ccc(NC(=O)COc2cccnc2[N+](=O)[O-])cc1S(=O)(=O)N1CCOCC1	-1	-0.1	.	-4%	0
COc1ccc(/C=C2/N=C(SC)NC2=O)cc1OC	-4	-2.5	.	-3%	.
COC(=O)C1=C(C)N(Cc2ccccc2)C(=S)N[C@H]1c1cccc(F)c1	-7	16	.	.	.
C=CCn1c(NCc2ccc3c(c2)OCO3)nc2ccccc21	0	2.1	-54	-1%	4
COc1ccc(-c2cc(NC(=O)c3cncn3-c3ccccc3)ccc2OC)cc1	-3	6.0	.	.	.
CN(C)c1ccc(/C=N/N2CCN(Cc3ccccc3Cl)CC2)cc1	-2	-3.6	.	.	.
Cc1nn2c(N3CCOCC3)cc(C(C)C)nc2c1-c1ccccc1	?	-2.2	.	.	.
CCOc1ccc(N2C(=O)CC(SC(=NC)Nc3cccc(OC)c3)C2=O)cc1 (centres undefined)	3	2.9	.	-5%	-2
COc1cc(-c2nc3ccc(C)cn3c2NCc2ccccc2)ccc1SC1CCCCC1	98	0.2	.	.	.
Nc1nnc(SCC(=O)Nc2ccccc2)s1	2	11	.	-4%	.
COc1ccc(S(=O)(=O)N2CCOCC2)cc1NC(=O)COc1cccnc1[N+](=O)[O-]	-1	-0.6	.	9%	2
CCOC(=O)c1c(N)sc2c1C1CCN2CC1	-4	0.1	-33	-3%	7
CC1CC(=O)N(Cc2ccccc2)c2ccccc2N1C=O (centres undefined)	-5	-0.6	-17	-8%	2
CCc1ccc(-c2cn3nc(-c4ccccc4)cnc3n2)cc1	8	-10	.	2%	.
Cc1cc(C)c(OCC(=O)OCC(=O)N2CCN(C(=O)c3ccco3)CC2)c(C)c1	-3	-1.9	.	.	.
O=C(N/N=C/c1cccc(Oc2ccc([N+](=O)[O-])cc2[N+](=O)[O-])c1)c1cncc(Br)c1	94	0.5	-5	15%	-5
CCOC(=O)N1CCN(Cc2nc3c(c(=O)n(C)c(=O)n3C)n2Cc2cccc3ccccc23)CC1	3	2.1	.	2%	.
COc1ccc(-c2nc(CS(=O)CC(=O)NC3CCCCC3)c(C)o2)cc1OC (centres undefined)	-12	-2.2	.	.	.
CCOc1ccccc1OCc1nn2c(COc3ccccc3)nnc2s1	1	-0.5	6	5%	9
Cc1cc2nccc(-c3ccc(Cl)cc3Cl)n2n1	7	-3.2	.	.	.
CCOC(=O)c1ccc(N2C(=O)c3n[nH]c(-c4ccco4)c3C2c2cccc([N+](=O)[O-])c2)cc1 (centres undefined)	100	25	-31	?	-26
CCCCCC(=O)Nc1c(-c2cccs2)c(=O)c2ccccc2n1C	-6	0.9	-12	-12%	5
S=C(Nc1cc(Cl)ccc1Cl)Nn1cnnc1	-5	2.1	.	5%	.
COc1ccc(C(=O)Oc2cccnc2)cc1OC	10	4.8	-63	-8%	4
O=C(Nc1ccccc1-c1nc2ccccc2[nH]1)c1sc2ccccc2c1Cl	5	-3.0	-26	2%	-34
CC(O)C(=O)N/N=C/c1cccc(Cl)c1Cl (centres undefined)	16	-6.0	-7	-8%	9
Cc1cc(-c2[nH]nc3c2C(c2ccsc2)C(C#N)=C(N)O3)c(C)s1 (centres undefined)	-9	86*	-25	3%	-7
O=C(NNC1=NCCC1)C1CC1	-10	-0.3	.	-5%	0
CCCCn1c(NS(=O)(=O)c2ccccc2)c(S(=O)(=O)c2ccc(C)cc2)c2nc3ccccc3nc21	-1	76*	24	3%	-6
Cc1ccc(S(=O)(=O)/C(C#N)=C/c2c(N3CCC(C(N)=O)CC3)nc3ccccn3c2=O)cc1	7	0.4	-15	-1%	-4
CN(C)C(=O)c1ccc(NC(=O)c2cccc(S(=O)(=O)N3CCCc4ccccc43)c2)cc1	10	2.2	.	.	.
Cc1nc2c3cc(Cl)ccc3n(CCN3CCOCC3)c2s1	-5	-1.0	.	8%	.
Nc1cc(C(=O)O)c(N)c2c1C(=O)c1ccccc1C2=O	15	15	.	2%	.
CC1(C)CC(=O)C(C(=O)Cc2ccccc2[N+](=O)[O-])C(=O)C1	2	-1.8	-13	2%	-11
O=C(N/N=C/c1ccccn1)c1ccccc1	43	2.1	-23	1%	-8
O=C(Nc1cc(Cl)cc(Cl)c1)c1cnn2cccnc12	14	1.8	-10	-5%	1
COc1ccc(CC(=O)NC2CCN(Cc3nnnn3C(C)(C)C)CC2)cc1OC	6	0.1	-18	-3%	12
Cc1cn2c(N)c(/C=C3\C=Nc4ccccc43)c(=O)nc2s1	-8	.	.	-3%	.
COC(=O)c1ccc[n+](CC(=O)c2ccc(Br)cc2)c1	-3	-1.1	-12	6%	12
COc1ccc(C(=O)NCCc2c[nH]c3ccccc23)cc1S(=O)(=O)N1CCOCC1	-6	-2.0	-42	6%	0
CCOc1ccc(NC(=O)CSc2nnc(C34CC5CC(CC(C5)C3)C4)n2C)cc1	-2	-0.3	11	-6%	1
CN(C)c1ccc(/C=C/c2cc[n+](C)cc2)cc1	-4	0.1	-5	4%	1
CC(C)=Cc1oc2ccc([N+](=O)[O-])cc2c1N1CC(C)OC(C)C1 (centres undefined)	5	-2.1	.	-3%	0
CCCCOc1cccc(NC(=O)CSc2nccn2C)c1	?	3.6	-21	-13%	-7
COc1cccc(-n2c(CNC(=O)OC(C)(C)C)n[nH]c2=S)c1	-9	-4.0	0	-8%	-1
Cc1ccc(C(=O)NCCN2CCCC2)cc1	6	1.2	-20	1%	1
COc1ccc(C(=O)c2sc(Nc3ccccc3)nc2N)cc1	5	-1.5	.	.	.
CC1(C)C(c2ccccc2)=NC(c2ccccc2)N1O (centres undefined)	-3	-6.1	2	-2%	-6	Arbovirus inh repeat=0
O=C(OCc1cc2ccccc2[nH]c1=O)C1CCCO1 (centres undefined)	-5	-1.0	8	-10%	6
O=C(OCCOCCN=C1NS(=O)(=O)c2ccccc21)c1ccccc1	-6	0.6	.	.	.
O=C(NCc1ccncc1)C(=O)Nc1nc2ccccc2s1	-7	1.2	.	1%	4
COc1ccc(CN2CCNC(=O)C2CC(=O)NCCc2nc(C)c(C)s2)cc1C (centres undefined)	7	1.2	.	.	.

Three compounds drawn at random from those above, as already listed:
SMILES	Mtb betalactam	RecA splice inh	YopH PTP inh	Mtb growth	Arbovirus inh	others
CCCCOc1cccc(NC(=O)CSc2nccn2C)c1	?	3.6	-21	-13%	-7
O=C(OCc1cc2ccccc2[nH]c1=O)C1CCCO1 (centres undefined)	-5	-1.0	8	-10%	6
COc1ccc(C(=O)c2sc(Nc3ccccc3)nc2N)cc1	5	-1.5	.	.	.

(cont.)
SMILES	Mtb betalactam	RecA splice inh	YopH PTP inh	Mtb growth	Arbovirus inh	others
COC(=O)C1C2C=CC3(CN(CCc4ccccc4)C(=O)C13)O2 (centres undefined)	-5	-4.0	7	-8%	-1
O=C(Nc1ccc2ccccc2c1)N1CCN(c2ncccc2C(F)(F)F)CC1	1	2.8	-12	3%	-7
O=C(COC(=O)C1=COCCO1)Nc1cc(S(=O)(=O)N2CCCCC2)ccc1Cl	77	-7.6	.	71%	4
O=c1c2c(-c3cccs3)csc2ncn1/N=C/c1ccccn1	-13	-0.1	.	.	.
